From PubChem
Env fusion inh – HIV envelope-mediated fusion inhibition | HeLa-JRFL Env/CEM21 cell fusion, luciferase | inhibition, % at 12.3 µM | 360,000 tested, 1.1% active;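 active means mean replicate inhibition score of at least 50 and every replicate individually at or above 50; inconclusive means only one of the two criteria met; inactive means mean below 50 and not all replicates reaching 50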;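 further: 0% = plate neutral controls and 100% = maraviroc near 300 nM; one replicate is shown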
CSC inhib – blocks cancer stem cells. cancer stem cell-like cells viability, luminescence. inhibition, % at 7.5 µM. 300,000 tested, 1.1% active. AID 2717;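 active means mean at 75% or more and at least half the replicates too; inconclusive means mean and replicates disagree; tested in HMLE shEcad cells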;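 further: 0% = median of negative and 100% = median of positive control wells; the first replicate is given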
eIF4H inh – inhibitors of RNA binding by human eIF4H; Q15056; eIF4H fluorescence polarization binding assay; inhibition, % at 35 µM; 290,000 tested, 0.94% active;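 active means 50% or more with normal probe brightness, or confirmed in later tests; inconclusive means above 50% with abnormal brightness, or retests that disagree; inactive means below 50% or failed in later tests; about a fifth of its hits are not listed in these tables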;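 further: calls also rest on retests at 20 µM and on dose response follow-up; 0% = protein and probe with vehicle and 100% = probe without protein; strong numbers were not always called active; many hits fall short of the cut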
Rce1 inhib – inhibitors of yeast Ras-converting enzyme. Q03530. yeast membranes, quenched prenylated peptide cleavage fluorescence. calls only. 290,000 tested, 0.27% active. AID 2563;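 active means fall in fluorescence gain of 50% or more versus controls, with final raw signal at or below 3038400; inconclusive means same 50% fall but final raw signal above 3038400; inactive means fall in fluorescence gain under 50%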;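 further: plate controls were neutral control wells for no effect and wells lacking membranes for full effect; tested at 10 µM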
Target sequence (Q03530 whole entry, looked up): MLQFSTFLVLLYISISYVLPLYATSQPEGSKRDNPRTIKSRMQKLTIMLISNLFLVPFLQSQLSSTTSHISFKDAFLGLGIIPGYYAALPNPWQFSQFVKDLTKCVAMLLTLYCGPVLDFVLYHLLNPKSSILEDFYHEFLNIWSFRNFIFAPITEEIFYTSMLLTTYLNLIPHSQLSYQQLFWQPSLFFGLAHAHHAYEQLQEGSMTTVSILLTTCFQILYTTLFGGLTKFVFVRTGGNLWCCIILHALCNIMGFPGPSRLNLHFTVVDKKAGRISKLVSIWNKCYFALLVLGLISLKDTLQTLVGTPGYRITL
MT1-MMP act inh – inhibitors of human MT1-MMP activation | P50281 | HT1080 RFP-PRO-GFP cells, GFP/RFP ratio fluorescence, overnight; percent of plate control window, DMSO zero | GFP/RFP ratio change, % at 20 µM | 360,000 tested, 0.061% active;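 active means GFP/RFP ratio change of at least 30% with cell ATP level not reduced by more than half and red fluorescence within 50% of control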; further: strong numbers were not always called active
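Compound: 20 µM single dose, 1% DMSO / System: HT1080 RFP-PRO-GFP cells / Controls: DMSO and RFP-L50D-GFP cell wells / Read-out basis: GFP/RFP fluorescence ratio / Schedule: overnight compound exposure at 37 °C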
PABP polyA inh – blocks human PABP binding to poly(A) RNA; P11940; fluorescence polarization; inhibition, % at 35 µM; 290,000 tested, 1% active; AID 2014;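 active means 50% or more with normal probe brightness, or confirmed in later tests; inconclusive means above 50% with abnormal brightness, or retests that disagree; inactive means below 50% or failed in later tests; about a fifth of its hits are not listed in these tables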;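 further: calls also rest on retests at 20 µM and on dose response follow-up; controls were probe without protein and protein plus probe with vehicle; some compounds called inactive have numbers as strong as hits; many hits fall short of the cut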
Yeast UUG start – alters start codon recognition fidelity in yeast. S. cerevisiae UUG-firefly luciferase reporter, luminescence/redox ratio. 350,000 tested, 0.13% active. activity score, % at 18.7 µM. AID 602363;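 active means replicate mean at a twofold rise or more, about +100% in these data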;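 further: firefly luciferase made from a UUG start codon reports start codon fidelity; reporter light over untreated wells divided by growth signal over untreated wells; some hits fall short of that in this replicate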
eIF4H inh retest – further read-out of eIF4H inh, marked with its call; inhibition, %; compound at 20 µM; confirmation average;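 mean of two retest wells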
PABP polyA inh retest – also measured in PABP polyA inh; calls as there; inhibition, %; compound at 20 µM; confirmation repeats;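 mean of two retest wells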
MT1-MMP act inh RFP – recorded beside MT1-MMP act inh, whose call it bears; RFP signal change, %; measured here: RFP expression control read;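 0 = vehicle wells; hits needed this value within 50% of zero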
Numbers without * were called inactive; i = inactive; ? = inconclusive; nt = no result given. Compounds as they come. About 2.9% of those tested had a hit in this group.

SMILES	Env fusion inh	CSC inhib	eIF4H inh	Rce1 inhib	MT1-MMP act inh	MT1-MMP act inh RFP	PABP polyA inh	Yeast UUG start	others
Cc1ccc(S(=O)(=O)N2CCC(=O)N(C(COCc3cccc(Cl)c3)Cc3ccccc3)CC2)cc1 (stereo unspecified)	39.2	15.5	2.4	i	0.0	-7.7	4.4	-9.4
O=C(Nc1ccccn1)Nc1ccccc1Cl	-45.2	-14.0	-11.8	i	-6.5	-6.1	-5.4	-10.3
Cc1nc(Cl)c(C(=O)NCc2ccccc2)c(C)c1[N+](=O)[O-]	-11.0	-23.6	-5.6	i	-0.7	0.9	-2.7	-6.9
COc1ccc(-c2csc(C(O)(c3ccccc3)C(F)(F)F)n2)cc1 (stereo unspecified)	2.9	nt	nt	nt	-0.6	-0.9	nt	-14.6
N#Cc1ccc(COc2cccc3cccnc23)cc1	-7.9	-2.1	-0.1	nt	0.5	2.0	-4.8	-8.3
Cc1nn(-c2ccccc2)c(Cl)c1/C=N/NC(=O)c1[nH]ncc1Br	-134.2	22.3	-3.4	i	-4.8	-1.8	-0.2	-23.6
C=CCn1c(Cc2c[nH]c3ccccc23)n[nH]c1=S	nt	0.7	-6.2	i	-2.6	1.1	1.7	-14.8
CCCCNC(=O)C(Cc1ccccc1)NS(=O)(=O)c1ccc2c(c1)c(=O)n(C)c(=O)n2C (stereo unspecified)	2.3	10.4	8.6	nt	1.6	4.1	5.7	-1.2
CCCNC(=O)NC(=O)COc1ccc(-c2ccc(C#N)cc2)cc1	4.5	-21.8	-6.1	i	-0.8	-5.5	-14.0	nt
COc1ccc(S(=O)(=O)NC(CC(=O)NC2CCCC2)c2ccco2)cc1 (stereo unspecified)	nt	-20.7	6.5	i	-1.6	0.8	-6.2	-17.8
O=c1c2cnn(-c3ccccc3)c2ncn1Cc1ccccc1F	14.1	-1.3	-5.3	i	1.9	-9.6	-15.3	-10.3
NC(=O)CSc1nnc(Cn2c(=O)sc3ccccc32)n1-c1cccc(Cl)c1	-16.4	-9.1	-3.4	i	-1.1	3.1	0.9	9.0
CC(C)Oc1snc(Cl)c1C(N)=O	nt	-17.2	-7.2	i	-4.1	2.8	-12.9	-21.1
CCCCOc1ccc(C(=O)Nc2cc(C)c(OCC(=O)N3CCOCC3)c(C)c2)cc1	26.1	6.4	-2.4	i	0.0	-7.7	0.6	-7.7
COc1ccc(-c2nn(CC(=O)NCCc3ccccc3)c(=S)n2C)cc1	nt	-2.0	1.5	i	4.0	-0.8	-1.1	nt
O=C(Nc1ccc2c(c1)OCCO2)C1CCN(C(=O)c2ccccc2)CC1	nt	nt	11.2	i	6.8	11.0	4.2	27.8
COC(=O)C(Cc1ccccc1)NC(=O)c1cc(=O)[nH]c2ccccc12 (stereo unspecified)	-9.1	15.7	-7.8	i	8.8	5.3	5.2	nt
COc1ccc(Cl)cc1NC(=O)COC(=O)C1COc2ccccc2O1 (stereo unspecified)	1.6	3.9	nt	nt	-2.5	0.9	nt	nt
Cc1nn(CC(=O)NNC(=O)c2ccc(Br)cc2)c(C)c1[N+](=O)[O-]	2.9	nt	nt	nt	1.7	2.3	nt	0.2
CCOC(=O)C1CCCN(C(=O)c2cc3ccccc3cc2OC)C1 (stereo unspecified)	-15.2	nt	nt	nt	20.0	-7.8	nt	-0.1
COc1ccc(-n2c(=S)[nH]c3cc(C(=O)NCCCN4CCCC4=O)ccc3c2=O)c(OC)c1	14.5	-24.6	-3.9	i	-3.8	-1.3	-2.3	6.8
O=C(Nc1cccc(C(=O)O)c1)/C(=C\c1ccccc1)NC(=O)c1ccccc1Cl	-45.6	0.4	-2.0	nt	2.8	2.1	-5.5	-4.3
Cc1cc(N(CCO)CCO)ccc1C(c1ccc(N(CCO)CCO)cc1C)c1ccccc1Cl	nt	-8.0	-6.3	i	-6.6	-6.0	0.7	7.1
COc1ccc(OC(=O)Nc2ccc([N+](=O)[O-])cc2OC)cc1	1.9	2.8	-1.4	i	0.5	1.8	6.3	-12.7
COC(=O)c1ccc(NC(=S)NC2CC2)cc1	-8.0	-9.6	-4.6	i	6.8	-3.4	5.2	-18.2
CSCCC(c1nnnn1-c1c(C)cccc1C)N1CCN(C/C=C/c2ccccc2)CC1 (stereo unspecified)	-3.4	nt	nt	nt	-2.7	-7.9	nt	-5.9
COC(=O)c1sc(N)c(C(=O)OC)c1COC(=O)CNS(=O)(=O)c1cccc(C#N)c1	nt	-4.1	-9.8	i	-4.6	-2.9	-7.6	nt
O=C(COc1ccc(Br)cc1)Nc1ccc([N+](=O)[O-])cn1	nt	-20.8	-2.8	i	2.6	6.4	-9.3	nt
C#CCOCCOCCOCCNc1nc(N2CCN(C(=O)CCCCCCCCCCNC(=O)[C@H](CCCCN)n3cc(C[C@@H](C)CC)nn3)CC2)nc(N2CCN(C(=O)CCCCCCCCCCNC(=O)[C@H](CCCCN)n3cc(C[C@@H](C)CC)nn3)CC2)n1	nt	165.8*	nt	i	-6.9	-18.3	nt	23.1
COCCNC(=O)C(c1ccco1)N(Cc1ccc(OC)cc1)C(=O)Cn1nnc2ccccc21 (stereo unspecified)	nt	-11.5	-12.5	i	-1.6	3.0	-4.3	1.5
O=[N+]([O-])c1ccc(C(O)C23CN4CN(CN(C4)C2)C3)cc1 (stereo unspecified)	-1.3	-18.3	3.8	i	-2.5	1.3	-5.3	nt
CCC(=O)c1ccc(OCC(=O)OCC(=O)c2cc(C)n(CC3CCCO3)c2C)cc1 (stereo unspecified)	nt	-17.0	nt	i	2.1	1.5	nt	-5.5
CCOC(=O)CSc1nc2c(c(=O)n(C)c(=O)n2C)n1Cc1ccccc1F	8.0	nt	-0.8	i	0.7	5.0	-6.4	15.5
Cc1c(Cl)cccc1NC(=S)NCC1COc2ccccc2O1 (stereo unspecified)	5.6	5.2	1.4	i	0.9	1.1	-5.0	nt
Cc1ccc(NC(=O)C2C(=O)N(C)c3ccccc32)cc1 (stereo unspecified)	21.4	2.9	9.7	i	-0.3	4.5	12.8	-5.1
O=C(COc1ccccc1)NC(=S)Nc1ccc2c(c1)Cc1ccccc1-2	-11.6	nt	-5.8	i	4.5	-0.1	-3.1	nt
COC(=O)c1c(NC(=O)c2ccco2)sc2c1CCC2	nt	76.5*	-15.2	i	-5.1	-5.4	-6.4	-9.1
CCCCc1cc2c(cc1NC(=O)CN1CCCCC1)OCCO2	6.4	59.3	-0.3	i	2.7	-0.4	1.3	-5.8
Cn1cnnc1SCc1ccccc1Br	nt	-8.1	5.3	i	4.7	3.1	7.4	-17.0
O=Cc1c(N2CCN(c3ccccc3)CC2)nc2ccccn2c1=O	12.4	-10.5	19.7	i	-3.2	1.8	3.6	nt
Cn1c(NC2CCCCC2)c(N=O)c(=O)n(C)c1=O	22.5	-8.9	1.8	i	-0.1	4.8	9.0	nt
FCCCOc1ccc(/C=N/OCc2c(Cl)cccc2Cl)cc1	nt	21.3	-7.0	i	-0.9	3.3	-11.7	-12.4
CC(C)(C)OC(=O)n1cc(C(=O)c2ccccc2O)cn1	-12.1	-6.0	-1.5	i	-6.5	3.9	2.8	7.8
Cn1c2ccccc2c(=O)c2cc(C#Cc3ccccn3)ccc21	-118.2	82.3*	12.2	i	-6.8	4.8	18.2	-5.7
Cc1cccnc1NC(=O)c1cccc(S(=O)(=O)NCc2ccccc2)c1	7.9	nt	nt	i	-3.0	0.5	nt	nt
Cc1ccc(C2C(C#N)=C(N)N(c3cccnc3)C3=C2C(=O)CCC3)c(C)c1 (stereo unspecified)	4.7	-3.0	4.5	i	-7.7	3.2	-6.9	nt
Cc1ccc(N2CCN(C(=O)CCc3nc4ccccc4[nH]3)CC2)c(C)c1	4.4	9.5	-0.5	i	11.5	-16.2	0.2	-20.6
Cc1ccc(NC(=O)CN2C(=O)N/C(=C/c3cc(C)n(-c4cccc(C(=O)O)c4)c3C)C2=O)cc1	17.5	nt	86.2*	nt	-2.4	3.9	26.5*	nt	eIF4H inh retest=53.0*;PABP polyA inh retest=56.3*

By substructure, those above containing a cyano group
SMILES	Env fusion inh	CSC inhib	eIF4H inh	Rce1 inhib	MT1-MMP act inh	MT1-MMP act inh RFP	PABP polyA inh	Yeast UUG start	others
N#Cc1ccc(COc2cccc3cccnc23)cc1	-7.9	-2.1	-0.1	nt	0.5	2.0	-4.8	-8.3
CCCNC(=O)NC(=O)COc1ccc(-c2ccc(C#N)cc2)cc1	4.5	-21.8	-6.1	i	-0.8	-5.5	-14.0	nt
COC(=O)c1sc(N)c(C(=O)OC)c1COC(=O)CNS(=O)(=O)c1cccc(C#N)c1	nt	-4.1	-9.8	i	-4.6	-2.9	-7.6	nt
Cc1ccc(C2C(C#N)=C(N)N(c3cccnc3)C3=C2C(=O)CCC3)c(C)c1 (stereo unspecified)	4.7	-3.0	4.5	i	-7.7	3.2	-6.9	nt

New compounds follow:
SMILES	Env fusion inh	CSC inhib	eIF4H inh	Rce1 inhib	MT1-MMP act inh	MT1-MMP act inh RFP	PABP polyA inh	Yeast UUG start	others
C[C@@H](CO)NC(=O)c1[nH]cnc1C(=O)Nc1ccc(CNC(=O)OC(C)(C)C)cc1	20.2	nt	nt	nt	0.7	-3.9	nt	-2.8
CC(Oc1ccc(F)cc1)c1nnc(SCC(=O)N(c2ccccc2)C2CCS(=O)(=O)C2)o1 (stereo unspecified)	45.4	nt	nt	nt	7.8	-11.4	nt	33.9
CC(C)(C)c1ccc(C(=O)NCCn2c(N)c(C#N)c3nc4ccccc4nc32)cc1	4.3	35.6	-7.8	nt	0.7	-5.1	2.9	nt
Cc1ccc(C)c(S(=O)(=O)Nc2ccc(O)cc2)c1	-43.1	-4.6	3.2	i	7.3	-0.4	-6.1	6.1
COc1ccccc1NC(=O)C1CCN(c2ncccn2)CC1	-57.3	5.0	-2.5	i	6.6	2.5	-0.5	-16.6
NC(=O)C1CC(=O)N(c2ccc(OCc3ccc(Cl)cc3Cl)cc2)C1 (stereo unspecified)	10.3	2.4	-4.5	i	-0.7	-0.1	2.5	-20.6
COc1cc(OC)cc(C(=O)Nc2cccnc2)c1	2.8	-3.6	-4.4	i	2.7	3.7	-18.3	nt
COc1ccc(NC(=S)N2CCN(C)CC2)cc1	3.6	-0.2	nt	i	1.2	5.6	nt	-17.4
CCC(=O)N1CCc2cc(S(=O)(=O)NCCC(=O)NC3CCCc4ccccc43)ccc21 (stereo unspecified)	?	-2.9	0.7	i	4.6	-1.1	-4.8	-6.6
Cc1ccc(-n2ncc(C#N)c2/N=C/N2CCN(C)CC2)cc1	nt	-5.9	0.2	i	2.4	-0.6	-2.1	-15.5
Cc1ccccc1C(=O)NC(=S)Nc1ccccc1N1CCCC1	1.5	23.0	-4.8	i	-2.3	-1.0	12.6	nt
COc1ccc(CCN(C(=O)Cn2nnc3ccccc32)C(C(=O)NCC2CCCO2)c2ccncc2)cc1OC (stereo unspecified)	7.6	-14.8	-6.3	i	-1.5	-0.8	7.3	nt
